RN4220 kill: growth inhibition of S. aureus RN4220, primary screen, OD600; inhibition, % (no concentration beside the values); 16 h; AID 1259311, 2017; 330,000 compounds, 0.33% hits;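 active means z-score of -3 or lower and OD600 up to 0.18 on both plates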;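 further: plate controls were untreated cells for no effect and reference antibiotic for full effect; stock transfer was 100 nL into about 80 µL; one replicate is shown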
PrP UTR inh: inhibition of PrP 5' UTR reporter expression. cell-based PrP 5' UTR mRNA reporter, plate reader. inhibition, % (test concentration not listed). 340,000 compounds, 0.35% hits;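 active means every replicate at 50% or more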;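 further: 0 = median of the neutral control wells; tested in H4 reporter cells; numbers are from one replicate; inactives centre near -14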
BJeLR viability: MLPCN primary cell-based screen for lethality selective to Ras in HRASV12 cells; BJeLR (HRASV12) viability, CellTiter-Glo ATP luminescence, 48 h; reference of the scale not given here; inhibition, % (no concentration beside the values); 300,000 compounds, 0.17% hits;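 active means replicate mean above 50%; inconclusive means above 50% but judged a plate artefact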;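 further: 50 nL library stock added to about 25 µL; numbers are from one replicate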
Sa ugtP lethal: growth inhibition of ugtP-null S. aureus, primary screen, RN4220 ugtP deletion, OD600 | 330,000 compounds, 0.54% hits | 16 h; some inactives read as strong as hits | growth inhibition, % (no concentration beside the values) | AID 1259309, 2017;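 active means z-score under -3 and OD600 up to 0.15 on both plates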;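 further: plate controls were untreated wells for no effect and antibiotic for full effect; wells of about 80 µL received 100 nL stock; the first replicate is given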
Bead autofluor: counter-screen for toxin protease inhibitors: compound fluorescence; AID 624483; fluorescence intensity (test concentration not listed); compound autofluorescence counterscreen, microsphere flow cytometry; active compounds read high; 360,000 compounds, 3.1% hits;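 active means at least 3 SD above the mean of all compounds, about 16000 in these data; inconclusive means too few beads counted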;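 further: 100 nL of 1 mM stock went into each well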
Mtb hypoxia inh: PubChem AID 1159583; fluorescence inhibition, % (concentration not given with the values); 300,000 compounds, 0.1% hits; M. tuberculosis hypoxia-regulated fluorescent reporter, fluorescence;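 active means 35 to 45% if threefold the growth effect, above 45% if 1.5-fold the growth effect; inactive means the rest, general growth blockers included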;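 further: wells of about 50 µL received 100 nL stock; 0% = vehicle wells and 100% = reference inhibitor wells; whole bacteria with a GFP reporter of the hypoxia response; strong numbers were not always called active; many hits fall short of the cut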
Mtb hypoxia inh growth: further read-out of Mtb hypoxia inh, marked with its call; growth inhibition, %; measured here: M. tuberculosis growth (absorbance);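 0% = vehicle and 100% = reference antibiotic; read after six days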
* hit, by the source's call; ? = inconclusive; . = not tested or not shown; & = joins results of further samples.

Molecule	RN4220 kill	PrP UTR inh	BJeLR viability	Sa ugtP lethal	Bead autofluor	Mtb hypoxia inh	Mtb hypoxia inh growth
CC1(C)CC(=O)CC(=Nc2ccc(C(=O)O)cc2)C1	-9.9	-9	-1	-10	3268	12	9
Cn1nc(-c2ccccc2)c(-c2nc(-c3ccccc3Cl)no2)c1Cl	-2.8	-28	28	61	4017	.	.
CCCn1nnnc1NC(=O)COc1ccc(Br)cc1	4.3	-25	-14	0	2348	-4	-8
Cc1ccccc1Cn1cc(S(=O)(=O)CC(=O)N2CCCCC2)c2ccccc21	2.3	1	1	1	8039	-2	-2
COC(=O)CNC(=O)c1cn(CCC#N)nc1-c1ccc(F)cc1	5.7	-19	-2	2	4062	0	8
O=C(COC(=O)c1cnccn1)NCc1ccccc1	6.5	-32	-11	0	20877*	17	8
Cc1cccn2c(=O)c3cc(C(=O)NC4CCCC4)n(C)c3nc12	1.6	-16	20	2	5971	0	11
O=C(c1cccc(S(=O)(=O)N2CCOCC2)c1)N(Cc1nnc(-c2ccccc2Cl)o1)C1CC1	5.7	-12	-9	12	?	7	0
COc1ccc(-c2nn(-c3ccccc3)cc2C(=O)N/N=C/c2ccc([N+](=O)[O-])o2)cc1	.	-22	-14	.	2621	.	.
Nc1cc(Cl)nnc1Cl	2.6	-11	-8	7	3717	9	-1
COc1ccc(-n2nc(C(=O)NCC(=O)NCc3cccc(F)c3)c3ccccc3c2=O)cc1Cl	0.3	-10	-9	12	6493	0	1
Cc1cc2[nH]c(=O)c(=O)[nH]c2cc1S(=O)(=O)Nc1cccc(Cl)c1	4.8	5	0	7	?	5	6
COc1ccc(N(CC(=O)NCc2ccco2)S(=O)(=O)c2ccccc2)cc1	4.5	-10	-14	3	4356	7	5
CCOc1ccc(NC(=O)CN(C2CCCCC2)S(C)(=O)=O)cc1	0.0	-14	-3	-9	22520*	0	4
CCCn1c(SCC(=O)Nc2cccc(C)n2)nc2c1c(=O)n(C)c(=O)n2C	4.0	-9	-2	2	4659	13	-2
CN1CCN(S(=O)(=O)c2cccc(C(=O)N(Cc3nnc(-c4ccc(Cl)cc4)o3)C3CC3)c2)CC1	4.4	-14	0	5	6067	4	4
O=C(Oc1coc(CSc2ncccn2)cc1=O)c1cccs1	1.9	-10	12	2	5858	-10	-9
CN1CCN(c2ccccc2NC(=O)c2ccc(N3CCOCC3)c([N+](=O)[O-])c2)CC1	2.9	1	3	10	3689	13	2
COc1ccc(C=NNC(=O)CCCCC(=O)NN=Cc2ccc(OC)cc2)cc1	2.1	-9	.	3	3802	-4	13
CC1CCCCN1C(=O)COC(=O)C1CCN(S(=O)(=O)c2c(Cl)cccc2Cl)CC1 (configuration not stated)	1.7	-4	-7	4	?	11	-2
Cc1ccc(OC(=O)c2cccnc2)cc1	8.3	-20	6	6	3059	-7	-8
Cc1cc2c3c(c1C)C1(C(=O)N3C(C)(C)CC2C)C(C#N)=C(N)OC2=C1C(=O)CC(C)(C)C2 (configuration not stated)	1.7	.	4	5	8741	3	2
CCOC(=O)Cc1c(C)nc2c(-c3ccc(Cl)cc3)c(C)[nH]n2c1=O	-2.2	-23	-6	-15	5453	4	2
CCCCNC(=O)c1cccc(C(=O)NCCCC)c1	5.3	-10	-2	-4	11087	15	11
COc1ccc([C@H]2C(C(=O)O)=C[C@@H](C(C)(C)C)N2S(=O)(=O)c2ccc(C)cc2)cc1OC	9.3	-25	.	6	3003	1	-2
CCOc1ccc(S(=O)(=O)N(CC)CC(=O)NCc2cccnc2)cc1	-0.8	-4	5	2	2895	-2	2
CC(C)Oc1cccc(C(=O)NC(=S)Nc2cccc(NC(=O)c3ccccc3Cl)c2)c1	11	-47	-4	-15	2157	7	1
Cc1ccc(C(=O)Nc2cccc(C(F)(F)F)c2)cc1NC(=O)c1nccn1C	5.5	-2	-8	-4	3579&3007	5	-8
Cc1cccc(C)c1NC(=O)CN(C)C(=O)c1cccc(S(=O)(=O)N2CCN(c3ccccc3)CC2)c1	-0.5	-4	2	2	6213	1	9
CCOC(=O)CSc1nnc(NC(=O)C2CC(=O)N(c3ccc(F)cc3)C2)s1 (configuration not stated)	-5.1	-26	4	0	5029	-4	3
COc1ccc(/C(N)=N/OC(=O)C2CCC(=O)N2S(=O)(=O)c2ccc(C)cc2)cc1OC (configuration not stated)	3.3	-12	3	5	2040	-4	-1
CCCCOC(=O)c1cccc(NC(=O)CC)c1	2.8	-11	0	-1	4203	4	8
COc1cc(NC(=O)CN2C(=O)NC(C)(CC(C)C)C2=O)cc(OC)c1 (configuration not stated)	-0.4	-17	.	5	4596	.	.
COc1cccc(-c2cc(C(F)(F)F)nc(N3CCN(c4ccccc4)CC3)n2)c1	-3.8	-24	-5	23	8525	-2	5
Cc1cccc(OCCNC(=O)CCNS(=O)(=O)c2ccc3ccccc3c2)c1	-0.4	-11	.	0	3929	8	9
O=C(NNC(=O)C1CC1)c1ccc(F)cc1F	3.1	-36	.	4	2953	7	6
O=C(CCN1C(=O)c2ccccc2C1=O)Nc1cc(F)ccc1F	4.3	0	0	0	3496	8	-1
Cc1cccc(N(NC(=O)C(C)(C)O)C(=O)c2ccccc2)c1	0.6	67*	11	4	2122	.	.
Cc1c(NC(=O)c2noc3c2CCc2ccccc2-3)c(=O)n(-c2ccccc2)n1C	0.2	-16	14	13	6530	6	3
O=C(CSc1nnc(-c2ccco2)n1CC1CCCO1)N1CCCCC1 (configuration not stated)	2.8	-13	-15	9	21580*	5	6
Cc1cc(NC(=O)COC(=O)C(C)Oc2ccc(Cl)cc2Cl)no1 (configuration not stated)	.	-14	1	.	3030	.	.
CCn1c(=O)c2sccc2n2c(CCCC(=O)N3CCN(c4ccccn4)CC3)nnc12	3.9	-3	-8	8	4181	3	-1
COc1ccc(C(CC(=O)c2ccc(C)cc2)Nc2ccc([N+](=O)[O-])cc2)cc1 (configuration not stated)	-3.9	-22	13	-3	2587	.	.
CCN(C[C@H]1N[C@@](CC)(C(=O)OC)[C@H]2C(=O)N(C)C(=O)[C@@H]12)S(=O)(=O)c1ccc(F)cc1	4.6	-14	.	6	3016	-3	0
CCCC(CN1CCCC1CN1C(N)=NCC1Cc1ccccc1)N1CC(Cc2ccccc2)N(CCCC2CCCC2)C1=N (configuration not stated)	101*	.	.	101*	.	.	.
CCOc1ccc(C(C)=O)cc1COC(=O)c1ccc2c(c1)NC(=O)CS2	2.8	-7	.	-17	4975	-2	4
O=S(=O)(c1cnc[nH]1)N1CCN(c2ccc(F)cc2)CC1	-0.3	-4	2	3	5070	11	6
Cc1cc(C)c(S(=O)(=O)N2CCOC2CNC(=O)C(=O)NCc2cccnc2)c(C)c1 (configuration not stated)	5.6	-27	2	6	5831	4	-5
CCn1cc(C2=NCCO2)c2ccccc21	-10	1	-8	0	5641	-2	14
Cc1ccc(C(=O)NCCC2=CCCCC2)cc1S(=O)(=O)N1CCCCC1	-0.3	-19	7	-7	4522	1	-2

Sorted by length of the SMILES (rising): ten of the compounds above
Molecule	RN4220 kill	PrP UTR inh	BJeLR viability	Sa ugtP lethal	Bead autofluor	Mtb hypoxia inh	Mtb hypoxia inh growth
CCn1cc(C2=NCCO2)c2ccccc21	-10	1	-8	0	5641	-2	14
O=C(CSc1nnc(-c2ccco2)n1CC1CCCO1)N1CCCCC1 (configuration not stated)	2.8	-13	-15	9	21580*	5	6
Cc1cccc(N(NC(=O)C(C)(C)O)C(=O)c2ccccc2)c1	0.6	67*	11	4	2122	.	.
Cc1cc(NC(=O)COC(=O)C(C)Oc2ccc(Cl)cc2Cl)no1 (configuration not stated)	.	-14	1	.	3030	.	.
Cc1ccc(C(=O)NCCC2=CCCCC2)cc1S(=O)(=O)N1CCCCC1	-0.3	-19	7	-7	4522	1	-2
CCOc1ccc(C(C)=O)cc1COC(=O)c1ccc2c(c1)NC(=O)CS2	2.8	-7	.	-17	4975	-2	4
CCn1c(=O)c2sccc2n2c(CCCC(=O)N3CCN(c4ccccn4)CC3)nnc12	3.9	-3	-8	8	4181	3	-1
Cc1cc(C)c(S(=O)(=O)N2CCOC2CNC(=O)C(=O)NCc2cccnc2)c(C)c1 (configuration not stated)	5.6	-27	2	6	5831	4	-5
CCCC(CN1CCCC1CN1C(N)=NCC1Cc1ccccc1)N1CC(Cc2ccccc2)N(CCCC2CCCC2)C1=N (configuration not stated)	101*	.	.	101*	.	.	.
CCN(C[C@H]1N[C@@](CC)(C(=O)OC)[C@H]2C(=O)N(C)C(=O)[C@@H]12)S(=O)(=O)c1ccc(F)cc1	4.6	-14	.	6	3016	-3	0

More structures:
Molecule	RN4220 kill	PrP UTR inh	BJeLR viability	Sa ugtP lethal	Bead autofluor	Mtb hypoxia inh	Mtb hypoxia inh growth
CCN(CC)S(=O)(=O)c1ccc(N2CCOCC2)c(NC(=O)CCOc2ccccc2)c1	2.7	-24	-1	5	4700	2	4
CC(=O)/C(=N/Nc1cccc(Cl)c1)N1CCOCC1	.	-12	6	.	3783	.	.
CSCCNC(=O)c1cccc(Cl)c1	5.2	-13	6	6	2116	3	-1
COCCN(C(=O)COC(=O)C1(C)CC1(Cl)Cl)c1c(N)n(Cc2ccccc2)c(=O)[nH]c1=O (configuration not stated)	-3.3	-8	6	-8	6102	-7	2
COc1ccccc1N(CC(O)CN1CCCC1)S(=O)(=O)c1ccccc1 (configuration not stated)	0.0	-5	-1	-3	5981	1	-2
CC1CN(C(C)CO)C(=O)Cc2cc(NS(=O)(=O)c3ccc(Cl)cc3)ccc2OC1CN(C)Cc1ccc(C(F)(F)F)cc1 (configuration not stated)	-11	.	.	-3	.	3	7
CSc1nc(C)c2c(n1)N(c1ccc(C(F)(F)F)cc1)CC2	-7.1	0	-5	-4	3368	8	7
Oc1c(Cl)cc(Cl)cc1C=Nc1ccc(N2CCOCC2)cc1	8.0	-12	-13	8	3566	16	10
COC(=O)c1ccc(Cn2nnc3ccccc3c2=O)o1	3.2	-21	-1	4	8659	10	5
CCCc1cc(=O)[nH]c(SC(C)C(=O)N2c3ccccc3CC2C)n1 (configuration not stated)	7.7	-8	.	-9	3870	5	11
CCOC(=O)N1CCN(C(=O)c2cn(CC)c3ccc(S(=O)(=O)N4CCCC4)cc3c2=O)CC1	1.2	-20	-1	-2	8679	-6	4
Cc1ccc2oc(=O)c3cnn(CC(=O)N4CCCCCC4)c3c2c1	-9.9	-7	6	3	5857	7	0
CC12CCC(C(=O)NCc3ccc(Cl)cc3)(OC1=O)C2(C)C (configuration not stated)	6.4	-16	-2	6	21504*	25	28
CSc1ccc(CN2CCN(C(=O)COc3cccc(C)c3)CC2)cc1	5.7	0	0	7	3175	11	1
O=[N+]([O-])c1cccc(NC(=S)Nc2nc(-c3ccccc3Cl)cs2)c1	72	-10	-2	62	?	5	16
CCOC(=O)c1sc(NS(=O)(=O)c2ccc(NC(C)=O)cc2)nc1C	4.3	-33	10	0	6084	5	8
O=Cc1cn(CC(O)CN2CCCCC2)c2ccccc12 (configuration not stated)	1.0	-31	-6	6	5911	1	13
O=C(CNC(=O)c1cccc(F)c1)N/N=C/c1cc(Br)ccc1OCc1ccccc1	.	-18	8	.	2482	.	.
Nc1ccc(S(=O)(=O)Nc2nccc(/C=C/c3ccccc3F)n2)cc1	6.5	-13	-3	-3	4778	-5	4
O=C(c1ncc[nH]1)c1ccccc1C(=O)N1CCOCC1	1.6	-10	11	1	11235	-2	0
CC1CCCCC12NC(=O)N(CC(=O)c1ccc3c(c1)OCO3)C2=O (configuration not stated)	0.9	-17	10	3	?	-5	-1
COc1ccc(S(=O)(=O)NC2CC(=O)N(c3ccc4c(c3)OCCO4)C2)cc1 (configuration not stated)	2.3	-6	6	2	6332	7	0

Screens as filed in PubChem.

An unsorted share of the library (roughly 4% active in at least one column).
